Assay outcomes: PubChem, National Center for Advancing Translational Sciences (NCATS)
VACV Venus inh: vaccinia inhibition (Venus reporter). Vaccinia virus Venus reporter expression, fluorescence. Potency, µM (series often up to 36.5 µM), without a hit: at the highest dose activity change, negative = inhibition, usual class: inhibitors. 0.46% of 330,000 active; active means well fitted inhibition curve with a large enough effect; inconclusive means small, poorly fitted or top-dose-only effect; inactive means no such curve, though single readings can be large or run the other way; tested in A549 cells; also: nearly all actives have a fitted effect of over 30% in size; inactives centre near -10
VACV mCherry inh: inhibitors of vaccinia virus infection (mCherry reporter signal). Potency, µM (highest dose often 36.5 µM), without a hit: at the highest dose activity change, negative = inhibition, actives largely listed as inhibitors. 0.63% of 310,000 active. Vaccinia virus mCherry reporter infection, fluorescence; about a quarter of the inactives have no number; active = well fitted inhibition curve with a large enough effect; inconclusive = small, poorly fitted or top-dose-only effect; inactive = no such curve, though single readings can be large or run the other way; tested in A549 cells; also: nearly all actives have a fitted effect of over 35% in size; inactives centre near -10
An asterisk follows results filed as active; i = inactive; u = inconclusive; x = not tested or not shown; & = joins results of further samples; [ ] = remark or other dose. % is scaled to controls: 0 for no effect and ±100 for the full control effect; potency is read from the fitted curve at half-maximal effect.

The line under a structure holds: VACV Venus inh	VACV mCherry inh
COc1cc2c(cc1OC)CN(C(=O)CNC(=O)c1ccc(OC(F)F)cc1)CC2
  -2%	0%
COC(=O)c1cn(-c2ccc(Cl)cc2)c(=O)c2ccccc12
  -2%	-14%
CCCN(C(=O)c1cc(S(=O)(=O)N2CCc3ccccc32)cn1C)c1ccc(OCC)cc1
  -12%	-14%
CN(C)c1ccc(/C=C(\C#N)c2nc3ccccc3c(=O)[nH]2)cc1
  2%[7.34 µM]	-9%[7.34 µM]
O=C(CCn1c(=S)oc2ccccc21)N1CCCCC1
  5%	i
CNC(=O)c1[nH]cnc1C(=O)N[C@@H](CC(C)C)C(=O)OCc1ccccc1
  -20%	i
O=C(Nc1cccc2c1CCCC2)C1CCCN(S(=O)(=O)c2cccc3nonc23)C1 (stereo not given)
  0%	x
COc1ccc(N2CCN(C(=O)C3CCN(S(=O)(=O)c4cccs4)CC3)CC2)cc1
  9%&1%	-8%&-16%
COc1ccc(C)cc1Nc1n[n+](-c2ccccc2)c(-c2cc([N+](=O)[O-])cc(OC)c2O)s1
  104%[activator]	-1%
Cc1nc(Nc2ncc3c(n2)CC(C)(C)CC3=O)nc2ccccc12
  -5%	-6%
CC(C)(C)CN1C(N)=NC[C@H]1Cc1ccc(O)cc1
  -2%	i
O=C(COC(=O)Cc1cccc(F)c1)NCCc1ccccc1
  -10%	-15%
Cc1ccc(N2CCN(C(=O)CN3C(=O)c4ccccc4C3=O)CC2)cc1
  -2%	0%
CC1CN(c2ccccn2)C(C)CN1C(=O)C(O)(c1ccccc1)c1ccccc1 (stereo not given)
  11%	-15%
Cc1onc(-c2ccccc2)c1C(=O)Nc1sccc1C#N
  18%	-14%
Cc1c(C(=O)NCCN2CCOCC2)cnn1-c1nccc(-c2cc3ccccc3o2)n1
  -12%	-6%
Cn1c(N)c(NC(=S)NC2CCCCC2)c(=O)n(C)c1=O
  2%	-7%
OCc1ccccc1Cn1ccnc1
  2%	i
Cn1c(N)c(C(=O)COC(=O)COc2ccc(Cl)cc2Cl)c(=O)n(C)c1=O
  -7%	-14%
CC[C@]1(C(=O)OC)[C@H]2C(=O)N(C)C(=O)[C@H]2[C@H]2CN(C)C(=NC)N21
  -4%	-19%
Cc1cc(C)cc(N(C(=O)CNC(=O)c2ccco2)C(C(=O)NC2CCCC2)c2cccnc2)c1 (stereo not given)
  1%	-13%
C[C@]12CC[C@@H](O)CC1=CCC1C2CC[C@]2(C)C(=O)[C@H](F)CC12 (stereo not given in full)
  -8%	-2%
CCN(c1ccc(F)cc1)S(=O)(=O)c1ccc2[nH]cc(C(=O)NCCCN3CCOCC3)c(=O)c2c1
  8%	i
CC1CCCCN1CCCNc1c(C=O)c(=O)[nH]c2ccccc12 (stereo not given)
  -7%	-3%
Cc1ccc(C2CCN(C(=O)Nc3ccc(Cl)cc3)C2)cc1 (stereo not given)
  -10%	-2%
O=S(=O)(c1ccc(F)cc1)N(Cc1nc(-c2ccccc2)no1)C1CCCCC1
  -10%	-5%
CCCCC(=O)NC(c1ccc(OC)cc1)c1ccc2cccnc2c1O (stereo not given)
  u	10µM*
Cc1ccc(-c2ccc([C@H]3[C@H]4C=CC[C@@H](C)[C@@H]4C(=O)N3Cc3ccccc3)c(F)c2)cc1
  -10%	-9%
Cc1ccccc1-c1nc(CN2CCC(C(=O)NCCN3CCOCC3)CC2)c(C)o1
  -10%	i
Cc1ccc(C(=O)NCC(=O)OC(C)C(=O)Nc2ccc(N(C)C)cc2)cc1C (stereo not given)
  -8%	0%
Cc1cccc(C(=O)OCC(=O)NCC2COc3ccccc3O2)c1 (stereo not given)
  -12%	-18%
CCCS(=O)(=O)NCc1c(C)ncc2c1CCN(C(=O)c1cccc(Cl)c1F)C2
  -7%	-8%
COc1ccc(N2C(=O)CC(NNC(=O)c3ccc(Br)s3)C2=O)cc1 (stereo not given)
  5%	-5%
COc1ccc([N+](=O)[O-])cc1NC(=O)Cc1ccc(C)cc1
  1%	-14%
CCOC(=O)C1(Cc2ccc(OC)cc2)CCN(C(=O)Cn2cnnn2)CC1
  -13%	i
COCC(C)n1c(SCc2ccc(C(=O)OC)o2)nc2ccccc2c1=O (stereo not given)
  -12%	-12%
CON(c1nc(Cl)nc(N(C)C)n1)S(=O)(=O)c1ccc(C)cc1
  -14%	-10%
CCN1C(=O)[C@@H]2[C@@H](c3ccc(SC4CCCCC4)c(OC)c3)N3CCC[C@@]3(C(=O)OC)[C@@H]2C1=O
  -17%	i
Nc1nc(Cl)cc(N2CCOCC2)n1
  -28%	x
CSCCC(NC(N)=O)C(=O)NCC1CCCCC1 (stereo not given)
  -5%	x
CCCc1nc(SCc2cc(=O)c3ccc(C)c(C)c3[nH]2)n[nH]1
  -4%	10%
CCOC(=O)C1CCCN(C(=O)CSc2ccc(NC(C)=O)cc2)C1 (stereo not given)
  -6%	i
CCCn1c(C)cc(C=O)c1C
  -6%	i
C#CC(CO)N(CCN(Cc1ccccc1)C(C#C)CO)Cc1ccccc1 (stereo not given)
  -8%	-10%
CCOc1ccc(CC(=O)NNC(=O)NC2CCCCC2)cc1
  -7%	i
CCCCn1cnc2c(Sc3c([N+](=O)[O-])ncn3C)nc(N)nc21
  u	u
CCCN(CCC)C1=CC(=[N+]2CCCC2)CC(C)(C)C1
  -16%	i
Cn1c2ccccc2c2c(=O)oc3ccccc3c21
  8%	37%[activator]
COc1ccc(OC)c(NC(=O)C2(C)CCN2CCOc2ccccc2)c1 (stereo not given)
  -27%	-23%
CCC(=O)c1cc(F)c(N2CCN(S(=O)(=O)c3ccccc3)CC2)cc1C
  u	-15%
NC(=S)Nc1ncc(C(F)(F)F)cc1Cl
  -9%	-9%
CCOC(=O)c1ccccc1NC(=O)COC
  3%	i
CCOc1ccc(NC(=O)C2CC(=O)N(CC)C(=Nc3ccc4c(c3)OCO4)S2)cc1 (stereo not given)
  -14%	-27%
Cc1ccc(Nc2nc(N)nc(CSc3nccn3C)n2)c(C)c1
  -15%	x
CN1OC[C@@H]2CN(Cc3ccccc3)[C@H](c3cccc(-c4ccccc4)c3)C[C@@H]21
  -20%	-7%
CCOc1ccc(OCC)c(NC(=O)C(NS(=O)(=O)c2cccs2)c2ccccc2)c1 (stereo not given)
  -20%	-23%
N#Cc1ccc(OCc2noc(-c3ccsc3)n2)cc1
  1%[7.34 µM]	0%[7.34 µM]
O=C(NNC1CC(=O)N(c2cccc(Cl)c2)C1=O)c1cccs1 (stereo not given)
  -1%	-15%
COc1ccccc1CCc1nc2ccccc2n1C1CCN(C(=O)c2cn3ccsc3n2)CC1
  -3%	-11%
Cc1ccc2c(c1)C=CC(C#N)N2C(=O)Oc1ccccc1 (stereo not given)
  -21%	u

(more compounds)
The line under a structure holds: VACV Venus inh	VACV mCherry inh
C#CC[N+](C)(C)CCCCCCCCC
  u	11µM*
C=CCN1C(=O)C(CC(=O)NCC)SC1=Nc1ccccc1CC (stereo not given)
  -10%	i
COc1ccc(O)c(C(=O)c2cnc3c(c2)CN(C)C(=O)N3)c1
  u	-29%
Cc1ccc(NC(=O)CSc2nnc(-c3cc4occc4n3C)n2-c2ccccc2C)c(C)c1
  -31%	u
O=C1/C(=C/c2cccs2)COc2ccccc21
  -1%	-8%
Cn1c(C(=O)N2CCC(C(=O)N3CCN(c4ccccc4)CC3)CC2)cc2sccc21
  u	-21%
c1ccc(COc2ccc(OCCN3CCCCC3)cc2)cc1
  -17%	i
COc1ccc(-c2nc3cc(NC(=O)CSc4ccc(C)cc4)ccc3o2)cc1
  -13%	-20%
O=C(COc1ccccc1F)Nc1ccc(C(=O)OCc2cc(=O)n3nc(C4CC4)sc3n2)cc1
  -10%	-10%
CC(=O)n1nc(-c2ccccc2)cc1-c1ccccc1
  -16%	-21%
Cc1[nH]c(=O)[nH]c(=O)c1S(=O)(=O)N1CCC(C(=O)N2CCN(Cc3ccccc3)CC2)CC1
  13%	x
CC1CCCN(C(=O)c2cc3c(Cl)nc4ccccc4c3s2)C1 (stereo not given)
  2%	-11%
O=C(CNC(=S)N(Cc1ccccc1Cl)C1CCCC1)NCCCN1CCOCC1
  -11%	-12%
O=C(c1ccc(Cl)c([N+](=O)[O-])c1)N(Cc1ccc(Cl)cc1)C1CCS(=O)(=O)C1 (stereo not given)
  -1%	-6%
CCN(CC)S(=O)(=O)c1ccc(OC)c(NC(=O)Cc2cccs2)c1
  -16%	i
CCCCn1c(SCCN2CCCCC2)nc2c1c(=O)n(C)c(=O)n2C
  1%	-1%
Cc1ccc(S(=O)(=O)N2CCOCC2)cc1NC(=O)CN1C(=O)CN(C)C1=O
  -5%	-13%
O=C(Nc1ccccc1N1CCN(C(=O)c2ccccc2)CC1)c1cc2ccccc2o1
  -5%	-8%
COC(=O)c1ccc2nc(-c3cccc(Cl)c3)c(Cc3cccc(F)c3)n2c1
  15%	12%
O=C(NCc1ccccc1)c1ccc(=O)oc1
  -15%	i
Cc1cc(N2CCOCC2)nc2ccc(NC(=O)CCC(=O)N3CCN(c4ccccc4F)CC3)cc12
  -20%	-14%
COc1ccccc1C(=O)NNC(=S)NC(=O)c1sc2ccccc2c1Cl
  -19%	-14%
CC(OC(=O)Nc1cccc(Cl)c1)C(=O)OC1CCCCC1 (stereo not given)
  -16%	-21%
O=C(Cn1c(=O)oc2cc(S(=O)(=O)N3CCOCC3)ccc21)N1CCc2ccccc2C1
  -16%	-26%
COc1cccc(/C=N/NC(=O)CN2CC(c3ccccc3)CC2=O)c1O (stereo not given)
  u	u
Cc1cccc2c1-c1sc(C(=O)NCc3ccc(Cl)cc3)cc1CO2
  2%	-8%
CCCCNC(=O)C(NC(=O)c1cnccn1)C(=O)c1ccccc1 (stereo not given)
  -6%	-1%
Cn1c(=O)n(C)c2cc([N+](=O)[O-])c(N3CCN(C(=O)C(C)(C)C)CC3)cc21
  -3%	-2%
C=CCN(C(=O)CSc1nc2ccsc2c(=O)n1Cc1ccccn1)c1ccccc1
  -3%	-13%
N#Cc1c2ccc(O)cc2n2ccccc12
  -23%	u
CC1CCCCN1S(=O)(=O)c1cccc2nonc12 (stereo not given)
  -6%	i
CCc1ccc2c(c1)NC(=O)C2(C)Cc1ccc(C(F)(F)F)o1 (stereo not given)
  -24%	-3%
CC(=O)c1cccc(NS(=O)(=O)c2ccc(N/C=C\C(=O)c3ccc(F)cc3)cc2)c1
  u	x
O=C(NCC(=O)N1CCN(S(=O)(=O)c2ccccc2)CC1)c1ccc2ccccc2c1
  -7%	-3%
COc1ccc2[nH]cc(C(=O)CN3CC(C)CC(C)C3)c2c1 (stereo not given)
  -21%	-16%
COCOc1ccc(-c2ncc(OC)nc2NC(=O)c2ccsc2)cc1
  13%	29%
Nc1c(Cl)ncnc1N/N=C/c1ccnc2ccccc12
  -7%	-17%
COc1ccc(N(C(=O)c2snc(C(N)=O)c2N)C(C(=O)NC2CCCC2)c2ccc3ncccc3c2)cc1 (stereo not given)
  -11%	-5%
CCOC(=O)c1c(CN(CC)CC)n(C)c2cc(Br)c(O)cc12
  -5%	-28%
CCOC(=O)c1cnc2ccc(C)cc2c1Sc1ccccc1
  -4%	x

Single records, as listed above:
CCCCNC(=O)C(NC(=O)c1cnccn1)C(=O)c1ccccc1 (stereo not given) is entered as VACV Venus inh: -6%; VACV mCherry inh: -1%
O=C(Cn1c(=O)oc2cc(S(=O)(=O)N3CCOCC3)ccc21)N1CCc2ccccc2C1 is entered as VACV Venus inh: -16%; VACV mCherry inh: -26%
COc1ccccc1C(=O)NNC(=S)NC(=O)c1sc2ccccc2c1Cl is entered as VACV Venus inh: -19%; VACV mCherry inh: -14%

Continued:
The line under a structure holds: VACV Venus inh	VACV mCherry inh
O=C1Nc2ccccc2C12OCCCO2
  -15%	x
CCOC(=O)NC1c2ccccc2Oc2ccccc21
  4%	5%
COc1cc(O)c(C(=O)O)c(O)c1
  u	i
COC(=O)c1c(OCC2CCCN(C)C2)cc(=O)n2c1CCN(Cc1ccc(OC)c(O)c1)CC2 (stereo not given)
  -3%	-1%
CCOP(=O)(OCC)C(Cc1ccc(OC)c(OC)c1)N=C(c1ccccc1)c1ccccc1 (stereo not given)
  -1%	i
COc1ccc(S(=O)(=O)Nc2ccc3c(c2)C(=O)N([C@H](C)CO)C[C@H](C)[C@@H](CN(C)S(=O)(=O)c2cn(C)cn2)OCCCC[C@H](C)O3)cc1
  -13%	2%
Cc1ccc(NC(=O)C(C)c2ccc(-c3ccccc3)c(F)c2)cc1 (stereo not given)
  u	x
COc1ccc(-c2oc3ncn4nc(-c5ccccc5O)nc4c3c2-c2ccc(OC)cc2)cc1
  1%	1%
CN1CCc2c(sc(NC(=O)Cc3ccccc3)c2C#N)C1
  -12%	-5%

Two neighbouring entries out of the list so far:
The line under a structure holds: VACV Venus inh	VACV mCherry inh
CCOP(=O)(OCC)C(Cc1ccc(OC)c(OC)c1)N=C(c1ccccc1)c1ccccc1 (stereo not given)
  -1%	i
COc1ccc(S(=O)(=O)Nc2ccc3c(c2)C(=O)N([C@H](C)CO)C[C@H](C)[C@@H](CN(C)S(=O)(=O)c2cn(C)cn2)OCCCC[C@H](C)O3)cc1
  -13%	2%
